NPYLR7 ag: agonists of mosquito NPYLR7 receptor, primary screen, cell-based, Aedes aegypti, calcium fluorescence, mosquito biting behavior; Aedes aegypti neuropeptide Y-like receptor 7 (NPYLR7); AID 1259423, 2018; activation, % at 10 µM; HEK293T NPYLR7/Galpha15, GCaMP6s calcium fluorescence; 270,000 compounds, 0.15% hits; in the data active means activation above about 40%;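 further: 0% = vehicle and 100% = reference agonist at the receptor; some compounds past the cut are filed as inactive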
NPYLR7 ag max-min: further read-out of NPYLR7 ag, marked with its call; activation, %; measured here: Max-Min RFU normalised activation; some inactives read as strong as hits;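 span of the calcium signal over five minutes; 0% = vehicle and 100% = native peptide agonist; compound fluorescence can raise it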
Active calls of the source: *; & = joins results of further samples. This is a subset. The share of hits here may be higher or lower than overall.

structure	NPYLR7 ag	NPYLR7 ag max-min
O=C(Oc1ccccc1)OC1C=CS(=O)(=O)C1 (centres undefined)	3.1	1.2
Cc1cnc(C(=O)Nc2nc3ccccc3[nH]2)cn1	1.4	3.2
O=C(C1CC2(CCNCC2)CN1)N(CCc1ccccc1)Cc1cccnc1 (centres undefined)	20.2	3.7
Cc1cc2c(SCC(=O)Nc3ccc4c(c3)OCO4)ncnc2s1	-7.9	-10.2
CSCCCNc1ncnc2c1CCN(C(=O)c1cccnc1)C2	-1.7	-3.4
Cc1ccc(S(=O)(=O)N2CCC(CO)(Cc3cccc(C(F)(F)F)c3)CC2)s1	10.1&-3.4	3.2&-6.8
CN(C)Cc1ccc(C2CCCN2c2nc(CCN)nc3ccccc23)cc1 (centres undefined)	18.2	10.9
CCOC(=NC1CCCCC1)NC(=O)c1ccccc1C	0.1	0.9
COc1ccc(CNC(=O)c2cnn3c2NC(c2ccccc2)CC3C(F)(F)F)cc1 (centres undefined)	-3.4	-6.9
CN(Cc1cccn1-c1nccs1)C1CCCN(C2Cc3ccccc3C2)C1 (centres undefined)	5.0	4.1
COC(=O)NNS(=O)(=O)c1c(Cl)cc(Cl)cc1Cl	7.5	5.1
CC(=O)Nc1ccc(SCCCC(=O)Nc2ccc(S(N)(=O)=O)cc2)nn1	-0.6	-1.8
CCCN(Cc1c(CC)nn(-c2ccc(F)cc2)c1N1CCN(C(C)C)CC1)S(=O)(=O)c1ccc(OC)cc1	6.6	17.6
Nc1nc(N2CCOCC2)nc(Nc2ccccc2F)c1[N+](=O)[O-]	2.0	3.8
COc1ccc(CCN(Cc2cccs2)C(=O)CN(C(=O)Nc2ccc(C#N)cc2)C(C)C)cc1OC	11.2	13.2

Laid out differently: 5 of the compounds above.
The line under a structure holds: NPYLR7 ag | NPYLR7 ag max-min
- O=C(Oc1ccccc1)OC1C=CS(=O)(=O)C1 (centres undefined)
 : 3.1 | 1.2
- Cc1cnc(C(=O)Nc2nc3ccccc3[nH]2)cn1
 : 1.4 | 3.2
- COc1ccc(CCN(Cc2cccs2)C(=O)CN(C(=O)Nc2ccc(C#N)cc2)C(C)C)cc1OC
 : 11.2 | 13.2
- Nc1nc(N2CCOCC2)nc(Nc2ccccc2F)c1[N+](=O)[O-]
 : 2.0 | 3.8
- CN(C)Cc1ccc(C2CCCN2c2nc(CCN)nc3ccccc23)cc1 (centres undefined)
 : 18.2 | 10.9

Fetched one by one from above:
structure	NPYLR7 ag	NPYLR7 ag max-min
CN(C)Cc1ccc(C2CCCN2c2nc(CCN)nc3ccccc23)cc1 (centres undefined)	18.2	10.9
Cc1ccc(S(=O)(=O)N2CCC(CO)(Cc3cccc(C(F)(F)F)c3)CC2)s1	10.1&-3.4	3.2&-6.8
O=C(C1CC2(CCNCC2)CN1)N(CCc1ccccc1)Cc1cccnc1 (centres undefined)	20.2	3.7
Nc1nc(N2CCOCC2)nc(Nc2ccccc2F)c1[N+](=O)[O-]	2.0	3.8
O=C(Oc1ccccc1)OC1C=CS(=O)(=O)C1 (centres undefined)	3.1	1.2

(next part)
structure	NPYLR7 ag	NPYLR7 ag max-min
COc1ccc(S(=O)(=O)CCC(=O)N(CCN(C)C)c2nc3c(C)ccc(Cl)c3s2)cc1	2.0	0.1
CCNC(=O)CC1SC(=NC)N(C)C1=O (centres undefined)	1.9	-1.4
Cc1ccc2nc(-n3nc4ccccc4n3)nc(-c3ccccc3)c2c1	-9.4	-19.4
COCCN(CC(=O)N1CCc2sccc2C1c1ccccc1)C(=O)c1ccccc1C (centres undefined)	-5.4	6.3
Cc1c(C(=O)NC2CCCC2)sc(=O)n1Cc1ccccc1C(F)(F)F	-10.7	-2.0
CCc1cc(C(=O)NCc2cccnc2Oc2c(C)cccc2C)on1	11.5	8.3
O=C(O)c1ccc(CSc2nc(N3CCN(c4ccccc4Cl)CC3)cc(C(F)(F)F)n2)o1	4.8	15.3
CN(CCn1ccc2ccccc21)C(=O)c1c(O)cccc1O	-2.9	-0.8
CCCN(CC(=O)N(Cc1cccn1Cc1ccc(Br)cc1)C1CCCCC1)C(=O)COCc1ccccc1	-7.2	-5.9
Cc1ccccc1C(=O)N[C@@H]1CCCCC1NC(=O)C1CCN(C(=O)c2cccc(Br)c2)CC1 (some centres undefined)	3.4	15.9
CN(CCC1CCCCO1)C(=O)c1ccc2oc(Cc3ccc(Cl)cc3)nc2c1 (centres undefined)	-3.6	-8.5
Cc1ccc(NC(=O)CSc2ncc(S(=O)(=O)c3ccc(N4CCCC4)cc3)c(=O)[nH]2)cc1	-1.8	-5.1
Cc1ccc(S(=O)(=O)N(C)c2c(C)ccc(S(=O)(=O)NCCCC(=O)O)c2C)cc1	-11.8	-16.2
O=C(NCc1ccc(N2CCOCC2)c(F)c1)Nc1ccccc1F	2.0	2.5
CC(C)c1ccc(C(=O)Cn2nc(-c3ccco3)c3sc(N4CCCCC4)nc3c2=O)cc1	-1.7	-5.1
CC(C)N(CCNC(=S)NCc1ccc(F)cc1)C(C)C	-7.6	-12.8
Cc1ccc(-c2noc(C3CCCCC3)n2)cc1	-6.5	-11.0
CCc1cc2c(=O)c(-c3nc4ccccc4s3)c(C)oc2cc1O	-0.2	-11.6
COc1ccc(-n2nnc3c(=O)n(CC(=O)NCc4ccccc4Cl)cnc32)cc1	10.2	8.5
O=C1/C(=C/c2ccc([N+](=O)[O-])cc2)C=C(c2ccccc2)N1c1ccc(-c2ccccc2)cc1	-1.4	8.2
CC(C)N1CCCCC1C(=O)Nc1cccc(Cn2cnnc2)c1 (centres undefined)	6.3&-3.3	3.6&-3.3
O=C(Nc1ccccc1OC(F)F)N[C@H](Cc1ccccc1)C(=O)N1CCC(C(=O)N2CCOCC2)CC1	3.3	2.1
CNc1cncc(-c2cccc(NC(C)=O)c2)n1	0.8	-1.8
O=C(O)CCn1cc(Cl)cn1	-7.9	-16.1
CC1(C)CC(=O)CC(=NNC(=O)C23CC4CC(CC(C4)C2)C3)C1	12.4	14.5
CC(=O)N1CCN(c2ncccc2CNC(=O)C(O)c2ccc(F)cc2)CC1 (centres undefined)	3.1	3.7
O=C(N=Nc1c(O)[nH]c2ccc(Br)cc12)c1ccccc1[N+](=O)[O-]	0.0	-1.1
O=C(O)c1ccc(N2CCN(C(=O)CC3c4cccnc4C(=O)N3c3c(Cl)cccc3Cl)CC2)cc1 (centres undefined)	4.2	5.5
Cc1ccc2sc(NNC(=O)c3cc(=O)c4ccccc4o3)nc2c1C	2.6	-1.1
NC(N)=NC(N)=Nc1cccc2ccccc12	-7.4	-14.1
COCCNC(=O)c1ccccc1N1CCC(NC(=O)c2ccc(C(F)(F)F)cc2)CC1	-2.5	4.3
O=C1CCCC(=NNC(=O)C2CCN(S(=O)(=O)c3cccs3)CC2)C1	5.5	4.1
CCCN(C(=O)CC1CCS(=O)(=O)C1)C1CCCC1 (centres undefined)	1.3	-6.5
O=C(/C=C/c1cn(S(=O)(=O)c2cccc(C(F)(F)F)c2)c2ccccc12)N1CCCC(O)C1 (centres undefined)	-13.5	-17.8
COc1ccc(C(=O)N2CCN(C(C(=O)N(C)Cc3ccco3)C3CCCC3)CC2)c(OC)c1 (centres undefined)	7.2	26.9
CC(=O)NC1C(Oc2ccc(I)cc2)OC(CO)C(O)C1O (centres undefined)	16.8	12.1
COc1cccc(OC)c1-c1ccc(-n2cncc2C(=O)NCCSCc2c(Cl)cccc2Cl)cc1	14.7	1.3
COc1nc(N)nc(N2CCCC2)c1C=O	5.4	5.7
O=C(Cn1ncc2ccccc2c1=O)NNC(=S)NC1CC2C=CC1C2 (centres undefined)	1.7	1.2
CCCCSC(C)C(=O)NC1CCN(c2ncnc3nc[nH]c23)CC1 (centres undefined)	-5.2	216.5
Cc1c2c(nn1Cc1ccccc1)NC(=O)CC2COCc1ccccc1 (centres undefined)	-6.8	-6.0
COc1ccc2nc(-c3ccc(Cl)c(NC(=O)C(C)(C)C)c3)cn2n1	-7.4	-11.9
COc1cc(C)c(CN2CCN(c3cc(N)nc(N)n3)CC2)cc1C	10.2	6.5
O=c1nc(/C=C/c2cccc3ccccc23)cc(C(F)(F)F)[nH]1	-8.9	-9.1
COc1ccc(-n2c(SCc3ccccc3C#N)nnc2-c2cccc(C)c2)cc1	-2.9	5.9
O=C(CC(c1ccccc1)c1ccc2c(c1)OCO2)N1CCCC1 (centres undefined)	18.4	7.0
COc1cc(F)cc2sc(NC(=O)c3ccc(=O)n(C)c3)nc12	-6.6&18.1	-9.2&11.3
CN(Cc1nc2c(s1)CCCC2)CC1CCN(CCc2ccc(F)cc2)CC1	19.1	19.7
CCOC(=O)c1ccc(Nc2nc3nonc3nc2N/N=C\c2ccc(N(CC)CC)cc2OCc2ccc(Cl)cc2Cl)cc1	9.7	23.5
O=C(c1cnn(-c2ccccc2)n1)N1CCN(S(=O)(=O)C2CC2)CC1	9.7	7.4
Cc1cc(C)n(C)c(=O)c1C(=O)NCc1cccnc1Oc1ccccc1F	6.0	4.9
COc1cccc([C@@H]2CCCN(Cc3ncccc3C(=O)O)C2)c1	18.1	16.0
O=C(Cn1c(CO)cnc1SCc1ccccc1F)NC1CCCC1	-1.2	-2.9
CC(=O)Nc1nc(Cn2nc(C(C)(C)C)oc2=O)cs1	10.2&3.7	6.8&1.3
Cc1cc(C)[n+](C2C3CC4CC(C3)CC2C4)o1 (centres undefined)	9.5	4.6
Clc1ccc2c(c1)nc(Cl)n1c(C3CC3)nnc21	-0.5	-1.6
CCN(Cc1ccc(Cl)s1)C(=O)CCC(=O)c1ccc(C)s1	6.5	1.7
COc1ccc(CCOC(=O)C2CCCCN2C(=O)c2cccc(SC(F)F)c2)cc1OC (centres undefined)	-6.5	-10.8
O=C(NCCC1COc2ccccc2O1)c1ccc(N2CCCCO2)nc1 (centres undefined)	18.5	8.2
NC(N)=NN=Cc1ccc(OCc2ccc(Cl)c(Cl)c2)cc1	-3.3	-5.0

Additional compounds.
structure	NPYLR7 ag	NPYLR7 ag max-min
COc1ccc(C(=O)N2C(C(=O)NC3CC3)COC23CCN(C(=O)c2ccc(OC)c(OC)c2)CC3)cc1 (centres undefined)	0.4	3.9
CCCCC(=O)N(C)c1c(C)nc2ccc(C(=O)NCCCN3CCCC3=O)cn12	6.6	-0.5
O=C(Nc1nc(-c2ccccc2)cs1)c1c[nH]c(=O)[nH]c1=O	0.1	-0.8
CCCCN(CCCC)S(=O)(=O)c1ncn[nH]1	-0.9	-3.7
CCN(CC)CC(C)NC(=O)c1ccc(N)cc1Cl (centres undefined)	1.1	0.9
O=C(c1ccccc1C1CCNC1)N1CCCN(C2Cc3ccccc3C2)CC1 (centres undefined)	9.0	8.0
OC1CCC(Nc2nccc3[nH]c(-c4ccccc4Cl)nc23)CC1 (centres undefined)	-6.2	-11.9
CCc1oc2ccccc2c1-c1nccn1CCN(C)C	6.1	-4.0
O=C(N[C@H]1CCCC[C@@H]1O)c1ccc(CSc2ncccn2)o1	-3.6	-6.5
C=CCn1c(SCC(=O)Nc2ccccc2)nc2scc(-c3ccc(C)o3)c2c1=O	-6.6	-11.2
CC1CCc2sc(C(=O)NC(C)CN3CCCC3=O)cc2C1 (centres undefined)	1.2	0.0
O=C(NCc1n[nH]c(=S)n1-c1ccccc1)c1cc(Cl)ccc1Cl	-5.8	-7.9
O=C1C(C(c2ccco2)N2CCN(c3cccc(Cl)c3)CC2)Sc2ncnn21 (centres undefined)	-2.4	-4.2
CC1CCCN(c2cc(C(=O)NCc3cccc(Cl)c3)c3ccccc3n2)C1 (centres undefined)	-7.1	2.6
O=C(Nc1ccc2c(c1)OCO2)C(C1CCCC1)N1CCN(C(=O)C2CCC2)CC1 (centres undefined)	9.8	15.9
Cc1cccc(CN(CC(O)COCc2ccco2)CC2CCCO2)c1 (centres undefined)	-1.0	0.0
CCOC(=O)C1=C(C)OC(=N)C(C(=O)OCC)C1c1cccc(O)c1 (centres undefined)	-6.6	-7.9
COc1cccc(/C=C2\Oc3c(ccc4c3CN(C3CC3)CO4)C2=O)c1OC	4.9	-0.3
O=C(NCc1ccc(N2CCOCC2)nc1)c1cccc(I)c1	12.9	15.3
COc1ccccc1C(=O)N1C(C(=O)Nc2sc(C)c(C)c2C#N)CC2CCCCC21 (centres undefined)	6.7	5.6
c1ccc2oc(-c3[nH]ncc3CN3CCN(c4nc5ccccc5o4)CC3)cc2c1	8.2	0.0
CCOC(=O)c1c(N)sc2c1CCC(C)C2 (centres undefined)	10.0	10.0
CC1CN(C(=O)COC(=O)c2nccnc2N)CC(C)O1 (centres undefined)	6.6	8.8
Cc1ccccc1NC(=O)C(C)Sc1nc(N)nc(N)n1 (centres undefined)	2.9	2.7
CCOc1cc(/C=N\Nc2nc(N3CCOCC3)nc(N3CCOCC3)n2)ccc1O	3.0	0.0
COc1cc(N2CCCC(CO)(Cc3cccc(Cl)c3)C2)ncn1 (centres undefined)	6.8	5.5
O=C1CCC(c2ccccc2)=C(c2ccccc2)N1	-5.5	-7.5
COc1cc(OC)c2cc(C(=O)N3c4ccccc4CC3C)[nH]c2c1OC (centres undefined)	-1.1	-2.0
c1ccc(-c2cnn3cc(CN4CCN(CC5CCCO5)CC4)cnc23)cc1 (centres undefined)	2.1	1.4
O=C(CN(C(=O)c1ccccc1Cl)C1CC1)N(Cc1ccc(F)cc1)Cc1cccs1	2.7	15.0
CCCC(=O)C1=C(c2ccc(Cl)cc2)N(C(=O)CCC)n2c(CC)nnc2S1	8.2	5.5
CCOC(=O)CSc1nnc(-c2ccccc2OC)n1-c1ccc(OC)cc1	-2.4	6.7
